# gsp antag – qHTS for Antagonists of gsp, the Etiologic Mutation Responsible for Fibrous Dysplasia/McCune-Albright Syndrome: qHTS | gsp-mutant cells, cAMP HTRF, 30 min; control for the full effect not named in the record | Potency, µM (top dose mostly 76.9 µM), for inactives: at the highest dose activity change, negative = inhibition, actives largely listed as inhibitors | 340,000 compounds, 0.4% hits | AID 624288, 2012; active = falling curve of any shape with a large fitted effect; inconclusive = falling curve, mostly with a smaller effect; inactive = flat or rising curve; cell line not stated here;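 also: intracellular cAMP measured with PDE inhibitor Ro 20-1724 present during compound exposure; potency is read from the fitted curve at half-maximal effect; % is scaled to controls: 0 for no effect and ±100 for the full control effect; nearly all actives have a fitted effect of over 65% in size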
#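 Measurement of cellular cAMP by homogeneous time-resolved fluorescence following a 30 min compound exposure at 37C. The PDE inhibitor […] was present throughout; the assay buffer was DPBS with 0.05% BSA and 0.005% Tween 20.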
# Menin-MLL FL inh – qHTS Assay for Inhibitors Targeting the Menin-MLL Interaction in MLL Related Leukemias: Competition With Fluorescein Labeled MLL-derived Peptide; Fluorescence polarization, fluorescein-MLL peptide displacement from menin; FP activity change, % at 61.4 µM; 290,000 tested, under 10 active; AID 1766, 2009; inconclusive = falling polarisation curve, or a change in total fluorescence; inactive = total fluorescence flat and polarisation flat or rising; no compound was filed as active; the % refers to the polarisation; negative = inhibition;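 also: % of control where 0% means no effect; inhibitors lower the polarisation; unlabelled MLL peptide was the positive control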
# TRPML1 inh – qHTS for Inhibitors of the Human Mucolipin Transient Receptor Potential 1 (TRPML1); Mucolipin-1 (Homo sapiens), Q9GZU1; TRPML1-inducible cells, Ca2+ dye fluorescence, FDSS; active compounds read low; inhibition of EC80 agonist-evoked calcium signal; activity change, negative = inhibition, % (no concentration beside the values); 390,000 compounds, 0.02% hits; AID 624415, 2012; in the data active means activity change below about -50%; inconclusive means about -30% to -50%; inactive means above about -30%;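 also: stimulus is agonist 54-4 at its EC80 concentration; % is scaled to controls: 0 for no effect and ±100 for the full control effect; compound concentration not given in the record; the text of the record puts the active cut at -80%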
# Target sequence (Q9GZU1 whole entry, looked up): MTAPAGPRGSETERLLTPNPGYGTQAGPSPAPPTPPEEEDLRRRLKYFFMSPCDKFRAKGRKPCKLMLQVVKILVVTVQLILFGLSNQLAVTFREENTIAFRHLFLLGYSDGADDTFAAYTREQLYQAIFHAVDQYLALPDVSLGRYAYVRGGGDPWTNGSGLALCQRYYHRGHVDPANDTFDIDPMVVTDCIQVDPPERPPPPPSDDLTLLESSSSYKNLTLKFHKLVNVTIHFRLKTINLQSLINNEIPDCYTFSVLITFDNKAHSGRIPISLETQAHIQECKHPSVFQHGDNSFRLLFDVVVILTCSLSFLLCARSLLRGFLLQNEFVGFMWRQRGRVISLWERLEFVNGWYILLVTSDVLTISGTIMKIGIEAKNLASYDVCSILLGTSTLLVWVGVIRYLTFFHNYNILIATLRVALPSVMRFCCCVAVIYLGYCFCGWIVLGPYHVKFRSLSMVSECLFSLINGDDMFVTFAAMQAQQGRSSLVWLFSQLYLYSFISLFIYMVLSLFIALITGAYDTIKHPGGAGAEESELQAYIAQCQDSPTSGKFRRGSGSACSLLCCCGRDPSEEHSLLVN
#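 Tet-induced TRPML1-DL cells loaded with Ca8 no-wash calcium dye were read kinetically on FDSS. Compound addition was followed by EC80 agonist 54-4 (4 uM final); inhibition was read over 110 s.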
# gsp agonist – qHTS for Agonist of gsp, the Etiologic Mutation Responsible for Fibrous Dysplasia/McCune-Albright Syndrome: qHTS. gsp mutant cells, cAMP HTRF, 30 min; control for the full effect not named in the record. Potency, µM (highest dose often 76.9 µM), inactives show top-dose activation (cAMP increase), most hits filed as activators. 340,000 compounds, 0.13% hits; active = well fitted activation curve with a large enough effect; inconclusive = small, poorly fitted or top-dose-only effect, or another doubt; inactive = no such curve, though single readings can be large or run the other way; cell line not stated here;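 also: phosphodiesterase inhibitor Ro 20-1724 added with compounds to block cAMP breakdown; potency is read from the fitted curve at half-maximal effect; nearly all actives have a fitted effect of over 60% in size; about a fifth of the inactives were tested at one dose only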
#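 Cells in DMEM/10% FBS with G418 were pretreated with compounds in DMSO plus […] (300 uM stock) for 30 min at 37C. cAMP was measured by HTRF (cAMP-d2 plus anti-cAMP antibody-K) after 30 min at room temperature.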
# ClpP mod – qHTS Assay for Activators of ClpP. ATP-dependent Clp protease proteolytic subunit (Bacillus subtilis (strain 168)), P80244. 340,000 compounds, 1.9% hits. Potency, µM (doses to about 57.5 µM), without a hit: at the top dose activity change, negative = active. purified B. subtilis ClpP, FRET peptide cleavage, 20 min; active = well fitted falling curve with a large enough effect; inconclusive = small, poorly fitted or top-dose-only effect; inactive = no such curve, though single readings can be large or run the other way; also: potency is read from the fitted curve at half-maximal effect; the source files actives as falling curves though it sought activators and does not explain the sign; nearly all actives have a fitted effect of over 65% in size; many hits overshoot -100%
# Target sequence (P80244 whole entry, looked up): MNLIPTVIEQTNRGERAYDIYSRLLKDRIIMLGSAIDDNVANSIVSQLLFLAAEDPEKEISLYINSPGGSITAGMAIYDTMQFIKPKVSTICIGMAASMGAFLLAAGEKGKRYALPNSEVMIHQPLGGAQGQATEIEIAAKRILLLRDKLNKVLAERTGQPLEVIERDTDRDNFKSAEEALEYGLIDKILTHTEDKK
#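 FRET quenching reversal measured ClpP activation: 10 microg/mL B. subtilis ClpP at pH 8 with the FRET-FV decapeptide, read at 430 nm after 320 nm excitation. The 20-min minus 0-min signal was scaled between DMSO/no-enzyme wells and ADEP (5.8 microM final).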
# TRPML1 agonist – qHTS for Agonists of the Human Mucolipin Transient Receptor Potential 1 (TRPML1) | AID 624414, 2012 | Mucolipin-1 (Homo sapiens), Q9GZU1 | activation, % (test concentration not listed) | TRPML1-expressing cells, Ca2+ dye fluorescence, FDSS; host cell line not named in the record; reference of the full effect not given here | 410,000 compounds, 0.12% hits; in the data active = activation above about 50%; inconclusive = about 30% to 50%; inactive = below about 30%; also: 0% is about no effect; the text of the record puts the active cut at 80%
#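 Agonist activity was taken from a 110 s kinetic Ca2+ dye read on the FDSS after pinning compounds onto TRPML1-DL cells. The cells were seeded at 1,500/well with Tet inducer, incubated about 16 h, then dye-loaded at room temperature.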
# Numbers without * were called inactive; ? = inconclusive; . = not tested or not shown; & = joins results of further samples; [ ] = dose if it differs, or a comment.
SMILES,gsp antag,Menin-MLL FL inh,TRPML1 inh,gsp agonist,ClpP mod,TRPML1 agonist
CCC1Oc2ccccc2N(CC(=O)NCCN2C(C)CCCC2C)C1=O (configuration not stated),0%,-1.5,-2,-4%,0.3%,-0.6
COc1cc(C(=O)Nc2ccc(-c3nc4cc(C)ccc4o3)c(O)c2)cc(OC)c1OC,-1%,3.1,-5,?,28µM*,1.1
Cc1ccnc(NC(=O)c2cccc(NC(=O)Cc3ccccc3)c2)c1,?,-4.6,6,7%[15.4 µM],.,2.7
CC(C)CN(C(=O)COC(=O)CCCc1c[nH]c2ccccc12)c1c(N)n(Cc2ccccc2)c(=O)[nH]c1=O,-1%,.,-1,0%,-3.1%,0.4
Cn1cccc1CC(=O)NNC(=S)NC(=O)c1ccccc1Br,-4%,-6.8,13,-37%,.,-0.1
Cc1ccc(Oc2ccc(OCC(=O)NC(C)C(=O)O)cc2)cc1 (configuration not stated),9%,-1.0,2,11%,0.1%,1.2
Cn1c(Cn2c(=O)sc3ccccc32)nnc1SCc1ccc(F)cc1,5%,0.3,-1,-1%,-0.5%,3.6
COc1ccc(Cl)cc1S(=O)(=O)N1CCN(CC(=O)C(C)(C)C)CC1,-3%,-2.0,8,12%,0.3%,-0.6
C/C(=N\NC(=O)c1ccc(Cn2cc(Br)cn2)o1)c1cccc(NC(=O)C(C)(C)C)c1,-19%,1.6,11,-13%,-1.8%,2.8
COC(=O)c1ccccc1NC(=O)N1CCC(N2CCN(Cc3ccc(F)cc3)C(=O)C2=O)CC1,.,.,-8,.,4.3%,0.2
C=CCNc1cccc(Br)c1,11%,.,27,?,1.3%,-0.5
Cc1ccc(C(=O)CN(C(=O)c2ccc(Cl)cc2)N2C(=O)CCC2=O)cc1,2%,9.8,55,-12%[15.4 µM],.,-0.1
Cc1ccc(-n2c(=O)c3cccnc3n2CC(=O)Nc2cc(Cl)ccc2C)cc1,.,.,25,.,-1.7%,0.6
Cc1onc(-c2ccccc2)c1CNS(=O)(=O)c1cccc(Br)c1,?,2.3,-7,1%[15.4 µM],.,1.3
Clc1ccc(/C=C/c2nc(Cl)c(-c3ccc(Cl)cc3)c(Cl)n2)cc1,-3%,1.1,-4,6%,?,-0.3
O=S(=O)(NCc1cccnc1)c1cccn1-c1ncc(C(F)(F)F)cc1Cl,-10%,-3.3,-8,?,.,-1.2
CC(=O)Nc1nc2ccc(C(=O)NCCOC(=O)C3CCCCC3)cc2s1,13%,-3.0,-23,-24%,-2.0%,2.5
CCOc1ccc(-n2cc(C(=O)Nc3cccc(Cl)c3)c3cc(OC)c(OC)cc3c2=O)cc1,-7%,-1.4,-4,0%,?,0.5
CC1CN(C(=O)CSc2nc(-c3ccccc3)cs2)CC(C)O1 (configuration not stated),4%,0.0,6,-44%,0.9%,2.5
CC(=O)Nc1ccccc1C(=O)C(=O)Nc1cccc(C(=O)N2CC(C)CC(C)C2)c1 (configuration not stated),5%,-0.9,-2,-16%[15.4 µM],.,-0.9
COc1ccc(CNS(=O)(=O)NCc2ccc(OC)c(OC)c2)cc1OC,6%,-5.3,2,-25%,.,-0.6
Cc1ccc2nc(-c3ccc4c(c3)OCCO4)cn2c1,23%,2.8,3,-6%,.,0.0
CCOc1ccc(S(=O)(=O)N(CC(=O)NC2CCCCC2C)Cc2ccco2)cc1 (configuration not stated),-3%,2.2,-5,0%[15.4 µM],?,4.7
COC(=O)c1ccc(NC(=O)n2ncc3c(C)cccc32)cc1,.,.,-1,.,0.2%,-0.7
COc1ccc(-c2cn3ccc4ccccc4c3n2)cc1,-28%,0.5,7,10%,28µM*,0.8

# Entries of single compounds, looked up by structure.
# Cn1cccc1CC(=O)NNC(=S)NC(=O)c1ccccc1Br is listed with gsp antag: -4%; Menin-MLL FL inh: -6.8; TRPML1 inh: 13; gsp agonist: -37%; ClpP mod: .; TRPML1 agonist: -0.1
# Clc1ccc(/C=C/c2nc(Cl)c(-c3ccc(Cl)cc3)c(Cl)n2)cc1 is listed with gsp antag: -3%; Menin-MLL FL inh: 1.1; TRPML1 inh: -4; gsp agonist: 6%; ClpP mod: ?; TRPML1 agonist: -0.3

# Other entries.
SMILES,gsp antag,Menin-MLL FL inh,TRPML1 inh,gsp agonist,ClpP mod,TRPML1 agonist
COC(=O)c1c(NC(=O)CCCC(=O)O)sc2c1CCC2,?,1.2,2,-25%,-22%,-0.8
Cc1cc(C)nc(OC(C(=O)O)C(OCCc2ccccc2)(c2ccccc2)c2ccccc2)n1 (configuration not stated),-8%,1.7,12,2%[15.4 µM],-6.1%,-0.2
O=S1(=O)C=C(Sc2nc3cc(Cl)ccc3o2)c2ccccc21,10%,6.1,20,6%,-2.0%,0.4
CN(C)/C=C1\N=C(c2cccnc2Oc2ccc(Cl)cc2)OC1=O,-10%,1.0,-1,8%,.,2.4
COc1ccc(C(=O)OCC(=O)Nc2c(C)n(C)n(-c3ccccc3)c2=O)cc1,2%,.,-3,2%,1.2%,-0.2
COC(=O)[C@H](CC(C)C)NC(=O)NCCCc1ccccc1,5%,-2.4,-11,-24%,-4.5%,-0.9
O=C(NC1CCCC1)C(c1ccncc1)N(Cc1ccccc1)C(=O)c1ccc(-c2ccccc2)[nH]1 (configuration not stated),-19%,15,13,-27%,-15%,3.4
O=C(NCc1ccc(F)cc1)C1(c2cccs2)CCOCC1,-1%,1.2,18&-9,8%[15.4 µM],-1.3%&-3.5%,1.4&0.4
CCOC(=O)c1ccc2[nH]c(C)c(CCC(C)=O)c(=O)c2c1,11%,-1.8,-12,6%,?,-0.6
COc1ccc(CNC(=O)c2cc3c(=O)n(Cc4cccnc4)ccc3nc2C)cc1,.,.,5,.,25µM*,0.1
CCCn1c(N)c(C(=O)CSc2nc(C)nc3sc(C)c(C)c23)c(=O)[nH]c1=O,11%,.,8,41%[15.4 µM],-0.8%,1.0
Cc1nc(C(=O)NCCC(C)C)sc1C1(C)CC(c2cccc([N+](=O)[O-])c2)=NO1 (configuration not stated),-8%,-7.3,27,.,-2.7%,1.1
O=C(c1cccc(C(F)(F)F)c1)N(c1ccccn1)C1CCCCC1,-1%,1.4,5,2%,.,-0.8
COCCNS(=O)(=O)c1ccc2c(c1)C(=O)c1cc(S(=O)(=O)NCCOC)ccc1-2,-6%,-1.7,11,27%,-0.8%,0.6
NC(=O)c1cnccn1,1%,4.7&0.0&1.9&-0.2,8,.,-0.8%,0.0
O=C(Oc1ccccc1)N1CCOCC1,-5%,-1.8,?,13%[15.4 µM],-0.6%,-1.5
Cc1cccc(-n2c(Cc3ccccc3)nnc2SCc2ccc([N+](=O)[O-])cc2)c1,-25%,1.3,7,?,-0.6%,0.5
CC1CCCC(NC(=O)CCNC(=O)c2ccc(Cl)cc2)C1C (configuration not stated),-5%,.,-3,?,-1.2%,0.8
COc1ccccc1OCC(=O)N1CCC(c2nc3ccccc3o2)CC1,.,.,15,.,1.3%,4.5
CCn1nc([N+](=O)[O-])c(C(C#N)c2nc3ccccc3n2C)c(Cl)c1=O (configuration not stated),-5%,2.8,8,-2%,-1.7%,0.7
Cc1ccc2nc(/C(C#N)=C\c3ccc(OC(=O)c4cccs4)cc3)[nH]c2c1,3%,?,-19,?,-9.9%,0.8
O=C(NCCSCc1ccccc1)C1CCN(S(=O)(=O)Cc2ccccc2)CC1,.,.,4,.,0.4%,-1.0
Cc1nnc(SCC(=O)N2CCCC(N3CCN(c4ccc(F)cc4)CC3)C2)o1 (configuration not stated),-7%,0.2,-3,24%[15.4 µM],-2.3%,-0.3
NS(=O)(=O)c1cccnc1Nc1ccc(Cl)c(Cl)c1,3%[15.4 µM],4.3,-24,11%,-21%,-0.4
COc1cccc(Nc2ccccc2C(=O)O)c1,-1%,-1.6,-7,-9%[15.4 µM],.,2.7

# Later entries:
SMILES,gsp antag,Menin-MLL FL inh,TRPML1 inh,gsp agonist,ClpP mod,TRPML1 agonist
Cc1cc(S(=O)(=O)N2CCN(c3ccccn3)CC2)c(C)cc1Cl,-21%,-4.8,-4,0%,-18%,0.2
c1ccc2c(NCC3CCCO3)nc(-c3ccncc3)nc2c1 (configuration not stated),0%,2.3,-1,8%,-6.2%,0.1
COC(=O)Cc1c(C)c2ccc(O)c(CNCc3ccc(OC)c(OC)c3)c2oc1=O,4%,2.5,-11,?,.,0.7
Cc1cc(C)cc(-n2nnnc2SCC(=O)Nc2nc(-c3ccc(Cl)cc3)cs2)c1,6%,5.8,0,1%,-3.1%,1.1
O=C(C1CCCN(S(=O)(=O)c2cccc3cccnc23)C1)N1CCN(c2ccc(F)cc2)CC1 (configuration not stated),-26%,1.5,1,-24%,0.0%,0.8
Cc1ccc(C)c(NC(=S)NCCCN2CCOCC2)c1,-6%,0.9,2,1%[15.4 µM],.,-0.5
CC1(C)Oc2ccc3ccc(=O)oc3c2/C(=C/N)C1=O,-1%,-0.5,-9,14%,-3.1%,-1.4
CCOC(=O)C1CCCN(C(=O)c2ccc3c(c2)OCCO3)C1 (configuration not stated),10%,.,-12,-42%[inhibitor],-0.4%,-0.7
O=C(Cc1ccc(F)cc1)Nc1nccs1,2%,9.7,.,9%,-2.5%,.
Cc1c(Cl)cccc1N(Cc1ccc(C(=O)O)cc1)S(=O)(=O)c1ccccc1,-13%,-0.4,22,-26%,.,0.4
COc1ccc(-c2noc(N3CCCC(C(=O)Nc4cc(F)ccc4F)C3)n2)cc1 (configuration not stated),-16%,2.2,-2,-4%,0.0%,-0.5
CSc1ccccc1OCc1cc(C(=O)NCCCc2ccccc2)no1,7%,0.8,13,14%,0.8%,2.8
O=C(O)c1ccccc1C(=O)Nc1ccccc1NC(=O)c1ccccc1C(=O)O,8%,.,-6,-6%[15.4 µM],.,0.2
CC(Oc1ccc(F)cc1)C(=O)Nc1cc(S(=O)(=O)N2CCCCC2)ccc1N1CCN(C)CC1 (configuration not stated),2%,.,-4,-11%,0.1%,-0.7
CN1CCc2ccc(NC(=O)c3ccc(C(F)(F)F)cc3)cc2C1,-3%,1.5,-13,15%,-8.2%,-0.2
COC(=O)c1c(C)[nH]c(C(=O)OCC(=O)N(CC(C)C)c2c(N)n(Cc3ccccc3)c(=O)[nH]c2=O)c1C,-8%,.,-6,-31%[inhibitor],-5.2%,-0.1
O=S1(=O)CCC(NC(=S)SCCOc2ccccc2)C1 (configuration not stated),-17%,4.1,0,-40%[inhibitor],-1.4%,1.7

# Source: PubChem BioAssay (National Center for Advancing Translational Sciences (NCATS))

# Rows are unselected; overall some 2.1% were active at least once.
